# PrP 5UTR inh – inhibition of PrP 5' UTR reporter expression. cell-based PrP 5' UTR mRNA reporter, plate reader. 340,000 compounds, 0.35% hits. inhibition, % (concentration not given with the values);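 active = every replicate at 50% or more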;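 also: 0 = median of the neutral control wells; tested in H4 reporter cells; numbers are from one replicate; inactives centre near -14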
# ugtP null kill – kills S. aureus RN4220 lacking UgtP. 330,000 compounds, 0.54% hits. AID 1259309. growth inhibition, % (test concentration not listed). S. aureus RN4220 ugtP deletion, OD600 growth, 16 h; some inactives read as strong as hits;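 active = z-score under -3 and OD600 up to 0.15 on both plates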;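 also: plate controls were untreated wells for no effect and antibiotic for full effect; wells of about 80 µL received 100 nL stock; the first replicate is given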
# BJeLR viability – BJeLR cell viability loss; 300,000 compounds, 0.17% hits; BJeLR (HRASV12) viability, CellTiter-Glo ATP luminescence, 48 h; reference of the scale not given here; inhibition, % (concentration not given with the values);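 active = replicate mean above 50%; inconclusive = above 50% but judged a plate artefact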;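 also: 50 nL library stock added to about 25 µL; numbers are from one replicate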
# Bead autofluor – compound fluorescence in toxin protease inhibitor counterscreen; compound autofluorescence counterscreen, microsphere flow cytometry; active compounds read high; fluorescence intensity (concentration not given with the values); AID 624483; 360,000 compounds, 3.1% hits;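 active = at least 3 SD above the mean of all compounds, about 16000 in these data; inconclusive = too few beads counted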;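 also: 100 nL of 1 mM stock went into each well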
# RN4220 kill – kills Staphylococcus aureus RN4220; inhibition, % (test concentration not listed); S. aureus RN4220 growth, OD600, 16 h; 330,000 compounds, 0.33% hits;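 active = z-score of -3 or lower and OD600 up to 0.18 on both plates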;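 also: plate controls were untreated cells for no effect and reference antibiotic for full effect; stock transfer was 100 nL into about 80 µL; one replicate is shown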
# Mtb hypoxia rep – reduces hypoxia-regulated biosensor signal in M. tuberculosis; M. tuberculosis hypoxia-regulated fluorescent reporter, fluorescence; fluorescence inhibition, % (test concentration not listed); 300,000 compounds, 0.1% hits;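 active = 35 to 45% if threefold the growth effect, above 45% if 1.5-fold the growth effect; inactive = the rest, general growth blockers included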;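 also: wells of about 50 µL received 100 nL stock; 0% = vehicle wells and 100% = reference inhibitor wells; whole bacteria with a GFP reporter of the hypoxia response; strong numbers were not always called active; many hits fall short of the cut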
# Mtb hypoxia rep growth – also measured in Mtb hypoxia rep; calls as there; growth inhibition, %; measured here: M. tuberculosis growth (absorbance);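 0% = vehicle and 100% = reference antibiotic; read after six days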
# An asterisk follows results filed as active; ? = inconclusive; · = not tested or not shown.
[1] Cc1cc(=O)[nH]c(SCC(=O)c2ccc(F)c(C)c2)n1
[2] CC(C)CN(C(=O)CSc1nc2ccccc2c(=O)[nH]1)c1c(N)n(CC(C)C)c(=O)[nH]c1=O
[3] O=C(NCc1ccccc1Cl)C1CCCN(S(=O)(=O)c2cccc3nonc23)C1 (centres undefined)
[4] N/C(=N/O)C(c1ccccc1)c1ccccc1
[5] Cc1cccc2nc3c(nc12)CCCC3
[6] COc1ccc(NC(=O)C(c2ccc(OC)cc2)N(C)C(=O)CNC(C)=O)cc1 (centres undefined)
[7] Cc1ccc(CNC(=O)CN(C(=O)C2(C)CC(=O)N=C3C=CC=CN32)c2ccccc2)cc1 (centres undefined)
[8] O=S(=O)(NCc1csc(-c2ccccc2)n1)c1ccc(Cl)s1

assay / compound	1	2	3	4	5	6	7	8
PrP 5UTR inh	-25	-10	-11	-27	-8	-24	-6	-3
ugtP null kill	5	5	-1	·	-3	5	5	-8
BJeLR viability	3	·	1	-3	-4	-3	-14	-15
Bead autofluor	4263	3891	3700	2127	3857	2878	5792	4399
RN4220 kill	-0.4	4.1	6.3	·	8.6	0.4	3.6	-1.8
Mtb hypoxia rep	1	-2	10	·	8	·	2	9
Mtb hypoxia rep growth	7	10	2	·	9	·	0	8

[9] O=C(NCc1ccccc1Cl)c1ccc(CS(=O)(=O)c2ccccc2)o1
[10] CCOC(=O)N1CCN(C(=O)CN(c2ccc(C)cc2)S(=O)(=O)c2c(C)noc2C)CC1
[11] CCCN(CC(=O)Nc1ccccc1C)C(=O)c1ccc2[nH]c3c(c2c1)CC(C)CC3 (centres undefined)
[12] Cc1nn(-c2ccc([N+](=O)[O-])cc2)c(N)c1-c1ccccc1
[13] COc1cc(C=NN(C)C)ccc1OC(=O)c1cccs1
[14] COc1ccc(S(=O)(=O)NCCN2CCOCC2)cc1[N+](=O)[O-]
[15] CC(=O)Nc1ccc(S(=O)(=O)Nc2nc3ccccc3nc2-n2ccc(=NC(=O)c3ccccc3)cc2)cc1
[16] CC(=O)NS(=O)(=O)c1ccc(NS(=O)(=O)c2ccc(F)cc2)cc1

assay / compound	9	10	11	12	13	14	15	16
PrP 5UTR inh	-7	-29	-18	-80	·	-51	·	7
ugtP null kill	6	9	-18	5	21	5	6	18
BJeLR viability	13	-13	·	-6	·	16	5	3
Bead autofluor	5767	4965	3567	4705	·	5606	4069	2351
RN4220 kill	3.8	3.6	-4.2	-0.1	10	-0.5	5.9	19
Mtb hypoxia rep	1	·	14	6	-7	1	14	19
Mtb hypoxia rep growth	-6	·	0	-1	11	3	5	-16

[17] COc1cccc(NC(=O)CSc2nnc(NC(=O)c3ccco3)s2)c1
[18] Cc1nn(-c2ccccc2Cl)c(Cl)c1/C=N/Nc1cccc(C(=O)O)c1
[19] Cc1cc(C)c2c(N)c3cccc(C)c3nc2n1
[20] Cc1nc2c(C(=O)NCCc3ccccc3)c[nH]n2c(=O)c1Cl
[21] COc1ccc(NC(=O)CSc2nc3nc(C)cc(C)n3n2)cc1
[22] O=C(NN/C(=N/S(=O)(=O)c1ccc(Cl)cc1)c1ccccc1)c1cccc(Cl)c1
[23] COc1ccc(NC(=O)CN(C)C(=O)/C=C/c2cn(-c3ccccc3)nc2-c2ccc(C)cc2)cc1
[24] CCOc1ccc(CN(C)CC(=O)NCc2ccc(F)cc2)cc1

assay / compound	17	18	19	20	21	22	23	24
PrP 5UTR inh	-1	77*	-35	-23	-12	-97	-10	-16
ugtP null kill	-7	·	3	3	4	16	8	11
BJeLR viability	-2	-4	16	·	4	-8	4	-7
Bead autofluor	4447	2462	1917	21299*	5265	4842	6223	4424
RN4220 kill	-1.8	·	5.6	9.6	-1.2	16	0.4	4.7
Mtb hypoxia rep	8	·	7	3	6	3	6	20
Mtb hypoxia rep growth	2	·	-11	7	10	15	3	7

[25] COc1cc(C(=O)NCCCN(C)C)ccc1OCC(=O)Nc1cccc(C(F)(F)F)c1
[26] CCC(Cc1ccccc1)NC(=O)C1CC1 (centres undefined)
[27] O=C(CSc1ccc2nnc(CCNC(=O)c3ccccc3)n2n1)NCc1ccc(F)cc1
[28] COc1ccc(CC(=O)Nc2ccc(NC(=O)c3ccc(Br)cc3)cc2)cc1OC
[29] COc1cc(/C=C(\C#N)c2ccccn2)ccc1OCC(=O)Nc1c(Cl)cccc1Cl
[30] Cc1nnc(Sc2nc3c(c(=O)[nH]c(=O)n3C)n2CCc2ccccc2)s1
[31] O=C(COC(=O)c1ccccc1OCc1ccc(Cl)cc1)NCC1CCCO1 (centres undefined)
[32] COc1ccc(NC(=O)CCn2nnc(-c3ccc(C)cc3)n2)cc1OC

assay / compound	25	26	27	28	29	30	31	32
PrP 5UTR inh	-24	4	8	-22	-13	-18	-16	-14
ugtP null kill	-2	3	0	12	11	-3	1	-6
BJeLR viability	-4	2	8	-7	·	1	·	-1
Bead autofluor	3608	3140	5558	4303	8147	4340	4350	2875
RN4220 kill	1.2	3.0	1.5	3.0	27	-12	3.8	-2.0
Mtb hypoxia rep	-1	3	-5	4	5	4	5	-5
Mtb hypoxia rep growth	4	5	10	9	4	11	3	-8

[33] COCc1cnc(C)nc1N
[34] COc1ccc(NC(=O)CN2c3cccc4cccc(c34)S2(=O)=O)cc1
[35] N#CC(=C(O)C(F)(F)F)c1nnc2n1CCCCC2
[36] CC(C)(C)c1ccc(C(=O)NCCNC(=O)c2ccco2)cc1
[37] CCN(/C(N)=N/c1nc(C)cc(C)n1)c1ccccc1
[38] Cc1ccc(NC(=O)Nc2ccc(Cl)cn2)cc1
[39] CCOc1ccccc1CN1CCNC(=O)C1CC(=O)NC1CCCCCC1 (centres undefined)
[40] CCC1CCCCN1C(=O)c1cc(S(=O)(=O)N2CCOCC2)ccc1C (centres undefined)

assay / compound	33	34	35	36	37	38	39	40
PrP 5UTR inh	-7	-12	·	-43	-6	-59	-2	-12
ugtP null kill	4	7	4	2	·	-2	9	1
BJeLR viability	2	-2	·	4	2	0	7	·
Bead autofluor	4100	?	·	5939	3509	3034	4383	3059
RN4220 kill	2.9	5.6	4.4	3.4	·	0.9	4.6	2.1
Mtb hypoxia rep	11	8	11	-7	·	-7	-3	10
Mtb hypoxia rep growth	8	14	2	4	·	-9	-10	7

[41] CC(Nc1nc(-c2ccccc2)nc2ccccc12)c1ccccc1 (centres undefined)
[42] CCC(N=c1cc(-c2ccc(OC)cc2)oc2ccc(C)cc12)C(=O)O (centres undefined)
[43] c1ccc(OCc2noc(CN3CC[C@@H]4CCCC[C@H]4C3)n2)cc1
[44] O=C(Nc1nnc(CCN2CCCCC2)s1)c1ccc(Br)cc1
[45] O=C(CCc1ccccc1)Nc1cc2c(cc1C(=O)O)OCCCO2
[46] CC(=O)NCCn1c(SCc2ccccc2F)nc2ccccc2c1=O
[47] COc1ccc(NC(=O)C2CCCN(S(=O)(=O)c3cccc4cccnc34)C2)cc1 (centres undefined)
[48] Cc1ccc(OC(=S)Nc2ccc(O)cc2)cc1

assay / compound	41	42	43	44	45	46	47	48
PrP 5UTR inh	-90	-32	5	-53	-34	-12	6	1
ugtP null kill	·	6	13	3	1	-6	8	0
BJeLR viability	18	6	-3	14	·	0	-8	·
Bead autofluor	6147	2120	3574	4156	3986	10877	5780	2947
RN4220 kill	·	4.2	1.1	6.0	-0.1	3.9	0.8	1.6
Mtb hypoxia rep	·	8	4	0	15	-8	·	·
Mtb hypoxia rep growth	·	3	12	8	6	8	·	·

[49] Cc1ccc(-n2nnnc2-c2cnn(-c3ccc(F)cc3)c2C(F)(F)F)cc1
[50] COc1ccccc1NS(=O)(=O)c1cccc(C(=O)NCC2(N(C)C)CCCCC2)c1
[51] CC(C)c1ccccc1NC(=O)COC(=O)c1cc(=O)[nH]c(=O)[nH]1
[52] Cc1ccc2oc(=O)c3cnn(CC(=O)N(CCN(C)C)Cc4ccco4)c3c2c1
[53] COCCNC(=S)NN=C(C)c1ccc(OC)cc1
[54] O=C(c1ccc(Cl)c(S(=O)(=O)N2CCCCCC2)c1)N1CCCCC1
[55] CC(=NOCC(=O)Nc1ccccc1C(C)(C)C)c1ccc2c(c1)OCCO2
[56] COc1ccc(C(=O)N(CC(=O)Nc2sc(C)c(C)c2C(N)=O)C2CCCC2)cc1

assay / compound	49	50	51	52	53	54	55	56
PrP 5UTR inh	-21	-10	-22	22	·	-10	·	-19
ugtP null kill	3	1	2	-5	3	0	7	4
BJeLR viability	13	0	-6	5	·	5	·	-4
Bead autofluor	4061	?	2401	5611	·	5277	·	3826
RN4220 kill	3.4	2.5	0.5	1.4	4.0	-0.3	8.0	4.2
Mtb hypoxia rep	4	10	3	3	-5	5	13	15
Mtb hypoxia rep growth	10	-6	13	3	2	7	6	9

[57] N#CCSc1ncccc1-c1nc2ccccc2[nH]1
[58] COC(=O)CCC(=O)N(CCN(C(=O)CCC(=O)OC)c1ccccc1)c1ccccc1
[59] Cn1cccc1Cc1nnc(SCC(=O)Nc2ccc3c(c2)OCCO3)n1CCc1ccccc1
[60] Cc1ccc2[nH]c(C(=O)NN=Cc3ccc([N+](=O)[O-])cc3)c(C)c2c1
[61] O=C1c2ccccc2C(=O)N1CSc1nnnn1-c1ccccc1
[62] CC(C)CN(C(=O)CSc1ccc2c(c1)OCCO2)c1c(N)n(CC(C)C)c(=O)[nH]c1=O
[63] CCOc1cc(CNCc2ccncc2)cc(Cl)c1OC
[64] Cc1nc2ccc(NC(=O)COc3ccccc3[N+](=O)[O-])cc2s1

assay / compound	57	58	59	60	61	62	63	64
PrP 5UTR inh	-1	-15	-16	·	-17	-20	-116	-62
ugtP null kill	7	3	0	-1	2	9	3	-2
BJeLR viability	-12	5	0	·	5	·	3	-5
Bead autofluor	4605	3429	6021	·	9400	2876	1997	4897
RN4220 kill	-2.0	1.5	3.0	1.1	1.3	5.4	2.9	-0.8
Mtb hypoxia rep	·	-9	·	10	2	-7	-1	-5
Mtb hypoxia rep growth	·	-4	·	2	9	-5	0	-5

[65] CC12CCCCC1c1ccccc1C(=NCC(=O)O)N2 (centres undefined)
[66] Cc1ccc(C(=O)OCn2nnc3ccccc3c2=O)cc1[N+](=O)[O-]
[67] Cc1[nH]c(=O)[nH]c(=O)c1NC(=O)c1sc2nc3c(C)cccc3cc2c1N
[68] NC(=O)CCCCC(=O)OCCCc1cccs1
[69] CN(C)S(=O)(=O)c1ccc(C(=O)OCCN=C2NS(=O)(=O)c3ccccc32)cc1
[70] CC(=O)Nc1ccc(OCC(O)Cn2c(C(C)C)nc3ccccc32)cc1 (centres undefined)
[71] CC1Cc2cc(S(=O)(=O)CCC(=O)NC3CCCCC3)ccc2N1C(=O)C1CC1 (centres undefined)
[72] Cc1ccc(NC(=O)COc2ccc(N(C)S(=O)(=O)c3ccc(F)cc3)cc2)cc1

assay / compound	65	66	67	68	69	70	71	72
PrP 5UTR inh	2	-39	-6	-10	-9	1	-5	-31
ugtP null kill	0	15	3	14	8	9	3	-5
BJeLR viability	0	2	9	-10	7	10	1	·
Bead autofluor	4427	3414	2353	16230*	5886	3477	4293	8144
RN4220 kill	4.5	8.8	3.9	9.3	2.5	7.4	5.6	-10
Mtb hypoxia rep	3	3	-13	5	-5	12	3	8
Mtb hypoxia rep growth	-4	9	-4	3	-5	11	5	9

[73] Cc1nc2ccc(NC(=O)c3cnc(Cl)c(Cl)c3)cc2s1
[74] Cc1ccc(NC(=O)CN2C(=O)S/C(=C\c3cc(C)n(-c4ccc(C(=O)O)cc4)c3C)C2=O)cc1
[75] Nc1cc(=O)[nH]c(SCC(=O)Nc2nc3ccc([N+](=O)[O-])cc3s2)n1
[76] CS(=O)(=O)c1ccc(C(=O)N(Cc2ccccc2)c2ccccc2)cc1
[77] CC1(C)CC(CCNC(=O)c2ccc(-n3cnnn3)cc2)CC(C)(C)N1

assay / compound	73	74	75	76	77
PrP 5UTR inh	-40	-4	·	-8	-29
ugtP null kill	6	81	1	16	-10
BJeLR viability	4	-8	3	-2	7
Bead autofluor	3731	4955	·	3547	4335
RN4220 kill	11	24	-0.7	3.8	2.0
Mtb hypoxia rep	-4	-7	3	5	·
Mtb hypoxia rep growth	5	-8	14	-3	·

# 3 structures from above, ordered by number of heavy atoms, largest number first.
[77] CC1(C)CC(CCNC(=O)c2ccc(-n3cnnn3)cc2)CC(C)(C)N1
[75] Nc1cc(=O)[nH]c(SCC(=O)Nc2nc3ccc([N+](=O)[O-])cc3s2)n1
[73] Cc1nc2ccc(NC(=O)c3cnc(Cl)c(Cl)c3)cc2s1

assay / compound	77	75	73
PrP 5UTR inh	-29	·	-40
ugtP null kill	-10	1	6
BJeLR viability	7	3	4
Bead autofluor	4335	·	3731
RN4220 kill	2.0	-0.7	11
Mtb hypoxia rep	·	3	-4
Mtb hypoxia rep growth	·	14	5

# Screening results as filed in PubChem.
